PABP FP inh: blocks human PABP binding to poly(A) RNA; P11940; fluorescence polarization; inhibition, % at 35 µM; actives 1% (n = 290,000); AID 2014;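 active means 50% or more with normal probe brightness, or confirmed in later tests; inconclusive means above 50% with abnormal brightness, or retests that disagree; inactive means below 50% or failed in later tests; about a fifth of its hits are not listed in these tables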;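 further: calls also rest on retests at 20 µM and on dose response follow-up; controls were probe without protein and protein plus probe with vehicle; some compounds called inactive have numbers as strong as hits; many hits fall short of the cut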
HIV Env fusion: blocks HIV Env-driven cell-cell fusion. HeLa-JRFL Env/CEM21 cell fusion, luciferase. inhibition, % at 12.3 µM. actives 1.1% (n = 360,000);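 active means mean replicate inhibition score of at least 50 and every replicate individually at or above 50; inconclusive means only one of the two criteria met; inactive means mean below 50 and not all replicates reaching 50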;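 further: 0% = plate neutral controls and 100% = maraviroc near 300 nM; one replicate is shown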
MT1-MMP act inh: blocks activation of human MT1-MMP; P50281; HT1080 RFP-PRO-GFP cells, GFP/RFP ratio fluorescence, overnight; percent of plate control window, DMSO zero; GFP/RFP ratio change, % at 20 µM; actives 0.061% (n = 360,000);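 active means GFP/RFP ratio change of at least 30% with cell ATP level not reduced by more than half and red fluorescence within 50% of control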; further: strong numbers were not always called active
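Assay system: HT1080 cells carrying an RFP-PRO-GFP reporter | Dosing: Single dose of 20 µM compound, 1% DMSO final | Incubation: Cells overnight before dosing, compound overnight, 37 °C, 5% CO2 | Evaluation: GFP/RFP fluorescence ratio | Control set: DMSO and RFP-L50D-GFP cell wells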
Yeast UUG start: yeast start codon fidelity modulation; actives 0.13% (n = 350,000); S. cerevisiae UUG-firefly luciferase reporter, luminescence/redox ratio; activity score, % at 18.7 µM;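 active means replicate mean at a twofold rise or more, about +100% in these data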;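 further: firefly luciferase made from a UUG start codon reports start codon fidelity; reporter light over untreated wells divided by growth signal over untreated wells; some hits fall short of that in this replicate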
eIF4H FP inh: inhibitors of RNA binding by human eIF4H. Q15056. eIF4H fluorescence polarization binding assay. inhibition, % at 35 µM. actives 0.94% (n = 290,000). AID 2012;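 active means 50% or more with normal probe brightness, or confirmed in later tests; inconclusive means above 50% with abnormal brightness, or retests that disagree; inactive means below 50% or failed in later tests; about a fifth of its hits are not listed in these tables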;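 further: calls also rest on retests at 20 µM and on dose response follow-up; 0% = protein and probe with vehicle and 100% = probe without protein; strong numbers were not always called active; many hits fall short of the cut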
CSC inhib: cancer stem cell inhibition. cancer stem cell-like cells viability, luminescence. actives 1.1% (n = 300,000). AID 2717. inhibition, % at 7.5 µM;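 active means mean at 75% or more and at least half the replicates too; inconclusive means mean and replicates disagree; tested in HMLE shEcad cells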;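 further: 0% = median of negative and 100% = median of positive control wells; the first replicate is given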
Rce1 inhib: inhibitors of yeast Ras-converting enzyme. calls only. actives 0.27% (n = 290,000). yeast membranes, quenched prenylated peptide cleavage fluorescence;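 active means fall in fluorescence gain of 50% or more versus controls, with final raw signal at or below 3038400; inconclusive means same 50% fall but final raw signal above 3038400; inactive means fall in fluorescence gain under 50%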;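 further: plate controls were neutral control wells for no effect and wells lacking membranes for full effect; tested at 10 µM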
Target sequence (Q03530 whole entry, looked up): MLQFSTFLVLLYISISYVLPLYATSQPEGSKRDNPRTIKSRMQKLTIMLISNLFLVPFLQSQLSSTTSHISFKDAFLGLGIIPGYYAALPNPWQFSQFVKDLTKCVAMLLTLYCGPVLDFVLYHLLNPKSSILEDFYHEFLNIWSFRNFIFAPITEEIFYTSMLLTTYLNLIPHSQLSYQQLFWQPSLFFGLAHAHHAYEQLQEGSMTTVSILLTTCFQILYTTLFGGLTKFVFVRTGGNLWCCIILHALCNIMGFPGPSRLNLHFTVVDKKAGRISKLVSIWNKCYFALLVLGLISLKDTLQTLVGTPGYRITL
eIF4H FP inh retest: recorded beside eIF4H FP inh, whose call it bears; inhibition, %; compound at 20 µM; confirmation average;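 mean of two retest wells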
PABP FP inh retest: also measured in PABP FP inh; calls as there; inhibition, %; compound at 20 µM; confirmation repeats;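 mean of two retest wells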
MT1-MMP act inh RFP: further read-out of MT1-MMP act inh, marked with its call; RFP signal change, %; measured here: RFP expression control read;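 0 = vehicle wells; hits needed this value within 50% of zero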
* hit, by the source's call; i = inactive; ? = inconclusive; / = not tested or not shown.

Start of the data: the first three records (preview)
SMILES | PABP FP inh | HIV Env fusion | MT1-MMP act inh | MT1-MMP act inh RFP | Yeast UUG start | eIF4H FP inh | CSC inhib | Rce1 inhib | others
CCOc1ccc(C(CC(=O)O)NC(=O)COc2ccccc2)cc1OC (stereo unspecified) | -7.7 | 9.0 | 0.6 | 6.4 | / | 4.5 | -0.7 | i
COc1ccc(-c2sc(NC(=O)c3ccc(C)cc3)nc2-c2ccc([N+](=O)[O-])cc2)cc1 | 21.3 | / | -7.0 | -3.7 | / | 36.4 | 16.1 | i
CN1C(=O)c2ccccc2NC(=O)[C@]12O[C@@H]2c1cccc(O)c1 | 70.2 | / | -7.8 | 4.2 | -2.6 | 88.4* | -15.3 | i | eIF4H FP inh retest=71.6*;PABP FP inh retest=41.6

All compounds of this part (from the top)
SMILES | PABP FP inh | HIV Env fusion | MT1-MMP act inh | MT1-MMP act inh RFP | Yeast UUG start | eIF4H FP inh | CSC inhib | Rce1 inhib | others
CCOc1ccc(C(CC(=O)O)NC(=O)COc2ccccc2)cc1OC (stereo unspecified) | -7.7 | 9.0 | 0.6 | 6.4 | / | 4.5 | -0.7 | i
COc1ccc(-c2sc(NC(=O)c3ccc(C)cc3)nc2-c2ccc([N+](=O)[O-])cc2)cc1 | 21.3 | / | -7.0 | -3.7 | / | 36.4 | 16.1 | i
CN1C(=O)c2ccccc2NC(=O)[C@]12O[C@@H]2c1cccc(O)c1 | 70.2 | / | -7.8 | 4.2 | -2.6 | 88.4* | -15.3 | i | eIF4H FP inh retest=71.6*;PABP FP inh retest=41.6
COc1cc(/C=N/n2cnnc2)ccc1OCCSc1ccc(C)cc1 | 16.8 | / | 3.2 | -2.6 | -16.0 | -3.0 | 1.0 | i
CC(C)(C)C(=O)Nc1scc(-c2ccc(-c3ccccc3)cc2)c1C(=O)O | 0.5 | 2.1 | 0.4 | 1.5 | -14.4 | -1.2 | 48.3 | i
CCOc1ccc(NC(=O)CN2CCN(CC(=O)c3ccc(OC)c(OC)c3)CC2)cc1 | 5.0 | / | 2.0 | 2.0 | 0.5 | 1.2 | -12.8 | /
CCCCN(C(=O)CSc1nnc(-c2ccccc2OC)n1C)c1c(N)n(Cc2ccccc2)c(=O)[nH]c1=O | 3.0 | -20.3 | -0.7 | 1.3 | / | -3.4 | -2.3 | i
Cc1ccccc1NC(=O)Cc1nnc(SCC(=O)N2CCOCC2)n1C | -6.7 | -21.1 | -1.4 | 1.4 | -16.2 | -5.4 | -23.1 | i
O=c1cc(-c2ccc(O)c(O)c2)oc2cc(O)c(C3OC(CO)C(O)C(O)C3O)c(O)c12 (stereo unspecified) | 17.2 | / | 4.6 | 4.0 | -6.8 | 13.5 | -13.6 | /
CC(=O)OC1CC2(C)/C(=N\O)CCC2C2CCc3cc(O)ccc3C12 (stereo unspecified) | 2.1 | 10.8 | -2.1 | -0.7 | 9.7 | -14.4 | 1.1 | i
CCCC(=O)Nc1cc(=O)[nH]c2ncnn12 | -1.9 | -31.2 | -5.1 | 4.7 | -17.5 | 8.8 | -6.8 | i
O=C(/C=C/c1ccccc1Cl)NCCc1ccccc1 | -3.6 | / | 5.7 | -1.4 | -5.2 | 1.3 | 6.5 | i
CCOC(=O)C1CCN(C(=O)c2ccccc2NS(=O)(=O)c2ccc(F)c(F)c2)CC1 | -2.0 | 20.7 | -4.9 | 0.6 | 4.3 | -8.8 | 3.0 | i
COC(=O)c1cccc(NC(=S)N2CCCCC2)c1 | ? | 12.1 | 0.5 | 3.7 | -8.9 | -0.2 | -6.9 | i
Cc1ccc(NC(=S)NCc2cccs2)cc1 | 11.1 | / | 0.3 | -0.2 | / | 0.7 | -5.3 | i
CCO[C@@H]1c2c(ccc3ccc(=O)oc23)OC(C)(C)[C@@H]1O | / | -8.3 | 1.2 | 4.1 | -22.0 | / | -16.5 | /
COc1ccc(NC(=O)CSCC(=O)N=c2sccn2C)cc1 | 12.1 | -36.1 | 1.8 | 6.9 | -6.5 | 3.8 | / | i
CCN(CC)CCCN(C(=O)c1cccs1)c1nc(-c2ccc(OC)cc2)cs1 | 1.0 | / | -11.8 | -11.3 | 1.0 | -7.3 | -0.6 | i
CCN(CC)CCCNC(=O)c1cc(Sc2nnc(C)s2)nc2ccccc12 | -8.2 | / | 4.8 | 8.4 | / | -3.6 | 0.5 | i
Cc1noc(C)c1CSCC(=O)OCC(=O)Nc1ccc(OC(F)(F)F)cc1 | / | 17.7 | 0.5 | 5.7 | -5.4 | / | / | /
C=CCCC(=O)N1C[C@H]2CON(C)[C@H]2C[C@H]1c1cccc(Br)c1 | / | -20.6 | 3.1 | 4.7 | 3.6 | / | / | /
CCCCCCNC(=O)CCc1nc2cccnc2n1Cc1ccc(OC)cc1 | -8.0 | 9.0 | -2.7 | -4.4 | -8.2 | -4.6 | 5.9 | i
Cc1occc1-c1nnc(SCC(N)=O)n1Cc1ccccc1 | 0.2 | -69.2 | 2.7 | 1.7 | -12.1 | -7.6 | / | i
Cc1ccc2nc(C)c(C(=O)N/N=C/c3ccccc3[N+](=O)[O-])cc2c1 | 19.4 | -44.6 | 7.6 | -0.7 | 0.9 | -3.1 | -4.2 | i
CC(O)(c1ccccc1)c1nc(-c2ccc(F)c(Cl)c2)cs1 (stereo unspecified) | / | -3.2 | 2.8 | -2.4 | 9.8 | / | / | /
CCCCC[C@@H](/C=C/C1C(=O)C=C[C@H]1C/C=C\CCCC(=O)O)OC(C)=O (stereo partly specified) | / | -8.0 | -2.2 | 3.3 | -6.4 | / | / | /
COc1cc(C2C(C(=O)c3sc(C)nc3C)=C(O)C(=O)N2CCN(C)C)cc(OC)c1OC (stereo unspecified) | 6.7 | / | 1.9 | 6.4 | -6.0 | -6.6 | / | /
O=C(Cc1ccc(F)cc1)N1CCC(CC2CC(c3ccc(Cl)cc3)=NO2)(C(=O)NCC2CCCCC2)CC1 (stereo unspecified) | -0.1 | 8.8 | -11.8 | -14.6 | -8.7 | -3.3 | -29.0 | i
O=C(CSc1nnc(-c2ccccc2)o1)Nc1ccccc1F | 6.1 | 40.2 | 2.8 | 5.2 | -24.0 | -2.4 | 58.2 | i
O=C(NCC(c1ccco1)N1CCCC1)c1cc(S(=O)(=O)N2CCCCC2)ccc1Cl (stereo unspecified) | / | / | 2.3 | -0.7 | -11.8 | / | -4.3 | /
CCOC(=O)C(C)Oc1ccc(NC(=O)C(Cl)(Cl)Cl)cc1 (stereo unspecified) | 0.0 | -6.9 | -2.1 | 0.9 | / | -9.3 | -7.6 | i
COc1ccc(CCNC(=O)C2CCN(S(=O)(=O)N3CCCCCC3)CC2)cc1OC | -4.3 | -23.2 | 1.9 | 0.4 | -12.1 | 0.7 | / | i
CCn1cc(C(=O)NCc2ccc3c(c2)OCO3)c(=O)c2cc(S(=O)(=O)N(C)C)ccc21 | -3.5 | / | 0.6 | 1.3 | 1.7 | -6.2 | 6.4 | i
CC(C)c1ccc(C2C3=C(COC3=O)Nc3cc4c(cc32)OCO4)cc1 (stereo unspecified) | -2.5 | -6.2 | -13.7 | -21.9 | -15.7 | 12.8 | 46.0 | i
O=C(CCc1ccc(S(=O)(=O)N2CCOCC2)cc1)Nc1ccc2c(c1)OCCO2 | -0.4 | -0.9 | -0.8 | -2.1 | -14.5 | 5.4 | -15.0 | i
CC(C)(OC1OC(CO)C(O)C(O)C1O)[C@H]1Oc2ccc3ccc(=O)oc3c2[C@H]1O (stereo partly specified) | -4.5 | -68.8 | 1.1 | 2.4 | -22.8 | -2.2 | -13.8 | ?
CCOC(=O)C1CCN(C(=O)COC(=O)c2cccc(NS(=O)(=O)c3ccccc3)c2)CC1 | / | 3.8 | 0.5 | -2.9 | 8.5 | / | / | /
CCOC(=O)c1c(C)nc2c(c1-c1ccccc1)C(=O)c1ccccc1-2 | 4.9 | -20.1 | -4.2 | -5.6 | -2.3 | -4.8 | 62.9 | i
COc1ccc(/C=C/c2ccc3c(Br)ccc(O)c3n2)cc1 | -12.7 | -19.8 | 8.3 | 4.0 | -21.0 | 11.0 | 88.8* | i
CC1(C(=O)NC2CCCCCCC2)CCC(=O)N1Cc1cccnc1 (stereo unspecified) | 1.7 | -28.1 | -0.7 | 2.7 | -6.6 | 0.9 | -2.9 | i
Cc1ccc(CNC(=O)C2CCCN(S(C)(=O)=O)C2)cc1 (stereo unspecified) | -1.0 | / | 2.3 | -2.5 | -13.8 | -2.0 | / | i
Cc1noc(C(=O)N2CCN(c3ccc(F)cc3)CC2)c1Cl | 3.3 | -1.6 | -4.9 | -0.5 | -29.0 | 2.8 | -1.8 | i
CC(C(=O)Nc1cccnc1)N1C(=O)C2C3C=CC(C3)C2C1=O (stereo unspecified) | -3.5 | -4.2 | -7.3 | -0.8 | -12.4 | 6.7 | -3.3 | i
CCOc1ccccc1NC(=O)C(OC(=O)c1cc(C)oc1C)c1ccccc1 (stereo unspecified) | -1.6 | 21.3 | -10.6 | -4.3 | / | -8.1 | 9.0 | /
O=C(CSc1ccccn1)N1CCN(c2ncc(C(F)(F)F)cc2Cl)CC1 | -3.2 | 22.3 | 0.3 | -3.7 | 7.8 | 2.0 | 9.2 | i
Cc1ccc(NC2CCCN(C(=O)C3CCCCC3)C2)cc1C (stereo unspecified) | 5.5 | 7.9 | 2.3 | -2.6 | 16.5 | -1.4 | 14.4 | i
CC(C)OCCCn1c(=S)[nH]c2ccc(N3CCOCC3)cc2c1=O | 15.9 | 72.0* | 1.4 | -7.1 | -19.4 | 8.4 | -0.2 | i
CCOC(=O)c1ccc(NC(=O)CN2C(=O)NC3(CCC(C)CC3)C2=O)cc1 (stereo unspecified) | 1.6 | 3.8 | 2.7 | 2.5 | 9.3 | -0.1 | -3.8 | i
CC(=O)Oc1cccc(C(=O)Nc2ccc3c(c2)C(=O)N(CC2CCCO2)C3=O)c1 (stereo unspecified) | -0.3 | -6.5 | 3.8 | 1.2 | -3.2 | 9.7 | 0.8 | i
Cc1cccc(N(C(=O)c2snc(C(N)=O)c2N)C(C(=O)NCC2CCCO2)c2ccc(N(C)C)cc2)c1C (stereo unspecified) | 2.4 | -5.4 | -5.5 | -4.5 | -15.2 | -4.2 | -12.2 | i
O=C(CN1C(=O)/C(=C/c2ccccc2Cl)SC1=S)NC1CCS(=O)(=O)C1 (stereo unspecified) | 6.6 | -11.6 | 3.4 | 3.6 | -8.3 | -3.0 | -4.4 | i
Nc1nc(NCC(=O)O)nc(NCc2ccccc2)c1[N+](=O)[O-] | 9.8 | 3.0 | -1.3 | -1.5 | 2.7 | -4.6 | -18.4 | i
COCC1CCN(C(=O)c2cc(COc3cc(C)c(Cl)c(C)c3)on2)C1 (stereo unspecified) | -10.0 | -47.8 | -0.4 | -2.1 | -9.8 | -7.0 | 29.5 | i
O=S(=O)(Nc1ccc(-c2ccc3nncn3n2)cc1)c1cccs1 | / | / | 1.5 | 3.3 | / | / | -2.4 | i
O=C(CCOc1ccccc1)Nc1ccc(S(=O)(=O)N2CCCC2)cc1 | -3.1 | / | 0.3 | 1.6 | -2.3 | -0.1 | -12.7 | i
CCOc1ccc(NC(=O)/C(=C\c2ccc(OC(C)=O)c(OC)c2)NC(C)=O)cc1 | 1.2 | 3.1 | 2.8 | 2.9 | / | -6.2 | 17.2 | i
NS(=O)(=O)c1ccc(CCNS(=O)(=O)c2cccc3cccnc23)cc1 | 1.5 | 5.9 | -11.4 | -3.1 | 15.8 | 4.6 | -3.7 | i

The order is random. Share with any hit: about 2.9%.
